High-throughput results from PubChem.
UCH37 DUB inh: blocks the human deubiquitinase UCH37; purified proteasome/UCH37, Ub-AMC cleavage fluorescence; inhibition, % (test concentration not listed); hit rate 0.33% among 330,000; AID 588478;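 active = mean of two replicates above 20%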;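 note: 0% = compound-free wells with enzyme and 100% = wells lacking proteasome; stock transfer was 100 nL into about 20 µL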
Target sequence (Q9Y5K5 whole entry, looked up): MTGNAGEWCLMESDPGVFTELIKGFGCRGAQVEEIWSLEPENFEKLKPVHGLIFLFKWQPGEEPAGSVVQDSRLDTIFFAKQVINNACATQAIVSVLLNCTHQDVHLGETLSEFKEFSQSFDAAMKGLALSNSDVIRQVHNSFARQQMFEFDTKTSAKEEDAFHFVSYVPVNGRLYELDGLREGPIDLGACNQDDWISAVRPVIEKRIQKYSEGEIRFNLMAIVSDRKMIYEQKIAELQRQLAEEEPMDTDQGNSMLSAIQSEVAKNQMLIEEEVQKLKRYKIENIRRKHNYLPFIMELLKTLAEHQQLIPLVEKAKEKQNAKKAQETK
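Material: human UCH37 enzyme supplied as purified proteasome complex / Amount: 0.15 nM proteasome as dispensed / Buffer or medium: pH 7.4 Tris-HCl (50 mM) with ovalbumin, ATP-MgCl2, DTT / Times: preincubation 30 min, reaction 25 min, room temperature / Technique: AMC fluorescence from Ub-AMC cleavage, excitation 355 nm, emission 460 nm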
Vif TR-FRET: HIV-1 Vif–A3G interaction blockers – biochemical, TR-FRET, GST-Vif 1-94, biotin-A3G peptide, dose response retest, primary screen (AID 1117319) | inhibition, %; hits with a dose series show IC50 in µM | hit rate 0.57% among 260,000 | TR-FRET GST-Vif / biotin-A3G peptide binding; higher % means a stronger effect; test concentration not given here; strong numbers were not always called active;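 active = above the screen mean plus three standard deviations and confirmed in dose response; inconclusive = results disagree or hit not tested in dose response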;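 note: Vif residues 1-94 fused to GST binding biotinylated APOBEC3G peptide 110-148; 0% = full assay without inhibitor and 100% = GST in place of GST-Vif; retest series ran down from 100 µM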
Ecoli growth: E. coli growth inhibition | Escherichia coli growth, OD600, 23 h; stronger effect = lower value | OD600 absorbance (no concentration beside the values) | hit rate 0.21% among 330,000 | AID 1053175;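 active = OD600 absorbance below the run mean of sample wells minus 3.6 SD, in any replicate, cut at about 0.56 in these data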;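 note: stock transfer was 300 nL into about 60 µL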
Bfl-1 A1 inh: inhibitors of the anti-apoptotic protein A1, read as caspase activation | hit rate 0.066% among 330,000 | MEF A1-2A-BIM cells, Caspase-Glo 3/7 luminescence, 3 h; percent of clofoctol response, vehicle zero | AID 2462 | caspase activation, % (test concentration not listed);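 active = over half of replicate activation scores above 10%, or exactly half above 10 with the replicate mean above 10; inconclusive = replicate mean below 10 yet half the replicates above 10; inactive = over half of replicates below 10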;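 note: wells of about 30 µL received 50 nL stock; many hits fall short of the cut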
HNF4A DNA FP: change in binding of human HNF4 alpha to DNA; P41235; HNF4a-FITC DNA binding, fluorescence polarization, 1 h; activity change, % at 10 µM; hit rate 0.3% among 360,000; AID 1224865; in the data active = activity change above about 30%, passing the limit was not always enough;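 note: controls were the assay level and a saturating level of protein; the project sought stronger binding though the title names inhibitors; some compounds called inactive have numbers as strong as hits; positive values seem to mean higher polarization but the record does not say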
Target sequence (P41235 whole entry, looked up): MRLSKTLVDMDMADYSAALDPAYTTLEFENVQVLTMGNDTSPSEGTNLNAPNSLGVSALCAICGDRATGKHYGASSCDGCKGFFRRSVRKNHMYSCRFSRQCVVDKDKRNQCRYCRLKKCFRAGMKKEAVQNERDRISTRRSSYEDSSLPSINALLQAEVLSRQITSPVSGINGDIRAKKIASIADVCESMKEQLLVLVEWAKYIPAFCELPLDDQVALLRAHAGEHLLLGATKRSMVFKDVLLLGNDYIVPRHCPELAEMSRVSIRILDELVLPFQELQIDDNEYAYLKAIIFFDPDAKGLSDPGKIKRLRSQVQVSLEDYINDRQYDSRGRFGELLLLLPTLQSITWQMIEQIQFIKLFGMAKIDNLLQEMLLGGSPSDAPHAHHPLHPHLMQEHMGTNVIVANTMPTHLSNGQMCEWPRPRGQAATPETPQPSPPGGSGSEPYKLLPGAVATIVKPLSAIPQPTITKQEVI
LANA-H2B inh: blocks KSHV LANA binding to histone H2A/H2B | hit rate 0.6% among 320,000 | inhibition, % (concentration not given with the values) | AID 2629 | cell-free LANA-H2A/H2B peptide, fluorescence polarization | Q9QR71; in the data active = inhibition mostly above about 10%, no sharp cut-off; inactive = mostly below about 6.7%;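 note: stock transfer was 7.5 nL into about 10 µL; 0% = median of vehicle wells and 100% = median of positive control wells; one replicate is shown; the record names a cut of 25% in any replicate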
B2AR ag: human beta-2 adrenergic receptor agonism by FAP; P07550; Am2.2-beta2AR cells, FAP receptor internalization, flow cytometry; reference of the scale not given here; response, % (test concentration not listed); hit rate 0.43% among 340,000;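 active = response above a set limit, near 3 SD of response in nonfluorescent compounds, cut at about 42% in these data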;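 note: stock transfer was 100 nL into about 11 µL; a reference agonist was the positive control; negative values mostly stem from fluorescent compounds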
The depositor's hits bear a star; ? = inconclusive; . = not tested or not shown.

molecule,UCH37 DUB inh,Vif TR-FRET,Ecoli growth,Bfl-1 A1 inh,HNF4A DNA FP,LANA-H2B inh,B2AR ag
Cc1[nH]c(C)c(S(=O)(=O)NCCc2ccccc2)c1C(=O)N1CCCC1,2.1,6.7%,0.681,1.2,0.7,0.7,0.3
COC(=O)c1ccc(CSc2nnnn2-c2ccccc2)o1,-1.4,6.6%,0.739,-0.1,0.0,-0.8,6.1
O=C(Nc1ccc(N2CCCCC2)cc1)c1cccnc1Cl,2.6,-0.2%,0.729,0.3,0.5,0.7,5.8
Cc1ccc(-c2nc(N/N=C/c3ccccc3[N+](=O)[O-])c3ccccc3n2)cc1,.,-2.1%,.,.,1.3,.,26.0
O=C(O)C1OC2OC3(CCCCC3)OC2C2OC3(CCCCC3)OC12 (stereo not drawn),5.9,.,0.666,0.6,-1.1,0.6,0.9
Cc1ccc(S(=O)(=O)NNC(=O)c2cccnc2)cc1,2.8,.,0.66,0.1,2.1,2.8,8.2
Cc1ccc(N2CN(CCc3ccccc3)CNC2=S)cc1,1.7,-0.8%,0.657,-0.7,5.5,1.7,2.8
O=C(OCC(=O)N1CCN(Cc2ccccc2)CC1)c1ccc(Cl)cc1,1.5,19.3%,0.667,-0.4,-1.0,-8.7,-2.9
CCN(CC(=O)Nc1sc2c(c1C#N)CCC(C)C2)Cc1nc2ccccc2c(=O)[nH]1 (stereo not drawn),-2.6,5.5%,0.658,0.4,4.2,-12.8,-10.9
Cc1cc(NC(=O)CSc2nnc(COc3ccccc3)o2)no1,0.2,?,0.721,-0.1,1.2,2.1,-0.9
CC(=O)N=c1sccn1CC(O)c1ccc(Br)cc1 (stereo not drawn),0.6,.,0.636,-1.2,0.5,2.2,3.9
CCN(CC)C(=O)C(Oc1ccc(C)nc1[N+](=O)[O-])c1ccccc1 (stereo not drawn),2.5,.,0.702,0.2,1.8,1.2,-9.8
O=C(Cn1ncc2c3ccccc3n(Cc3ccccc3F)c2c1=O)N1CCN(c2ccccn2)CC1,3.2,.,0.775,0.3,-2.4,12.4,-3.0
COc1ccccc1C(O)(C(=O)NN(C(=O)c1ccccc1)c1ccccc1C)c1cccs1 (stereo not drawn),-0.2,?,0.704,0.4,0.8,-1.5,-6.0
Cn1nnnc1SCC(=O)Nc1ccc(Br)cc1Br,-2.8,.,0.698,-0.5,-2.5,1.0,17.0
CCn1nc(NS(=O)(=O)c2ccc(NC(C)=O)cc2)c2cc3ccc(C)cc3nc21,2.0,.,0.673,2.6,5.9,11.1,14.7
CCOc1ccc(N(CC(=O)NC2CCCCCC2)S(=O)(=O)c2ccccc2)cc1,0.3,-12.9%,0.755,0.4,0.8,1.3,2.9
O=C(Cn1c(-c2cncs2)nc2ccccc21)NCCc1ccccc1,5.5,5.4%,0.719,0.3,-0.2,-0.5,6.5
CN(C)C(=O)COC(=O)/C=C/c1ccccc1[N+](=O)[O-],4.4,-1.3%,0.722,-0.4,-0.4,2.7,-1.4
CCC(C)(C)C1CCc2c(sc(N)c2C(N)=O)C1 (stereo not drawn),-10.5,31.0%,0.614,-0.3,3.1,-0.7,-12.0
Cc1cccc(C(=O)N[C@H](C(=O)Nc2ccc(C)c(S(=O)(=O)N3CCOCC3)c2)C(C)C)c1,1.4,5.9%,0.719,-0.4,-7.6,-0.1,6.4
O=C(NC(=S)Nc1ccc(Br)cn1)c1cccnc1,2.9,-14.9%,0.659,0.1,1.0,0.3,-8.0
COC(=O)C1=C(C)NC(C)=C(C(=O)OC)C1C1CC=CCC1 (stereo not drawn),-1.2,2.7%,0.771,-0.5,-1.4,8.1*,1.4
CCCCN(C(=O)Oc1ccccc1)C1CCS(=O)(=O)C1 (stereo not drawn),-2.5,-6.8%,0.674,0.0,-2.7,3.2,-9.5
CCCCCN(C(=O)CCC(=O)OCc1cccc(C)c1)c1c(N)n(CCCC)c(=O)[nH]c1=O,2.6,-1.6%,0.675,-0.1,-0.5,-0.3,-8.4
COc1cccc(Oc2cn[nH]c2-c2ccc(OC)cc2O)c1,2.3,3.4%,0.679,-0.6,2.9,0.5,1.0
COc1ccccc1C(=O)N/C(=C/c1ccccc1)C(=O)NC(CCSC)C(=O)O (stereo not drawn),-1.4,3.3%,0.651,0.2,0.7,-1.5,5.2
Cc1cc(N/N=C/c2ccc(O)cc2)c2cccc(C)c2n1,.,.,.,-1.4,-5.2,1.1,19.6
CC(=O)Nc1cccc(C(=O)NCC2(N3CCCCC3)CCCCC2)c1,4.4,3.8%,0.744,0.2,1.3,-0.4,2.6
Cc1cc(C)cc(NC(=S)N2CCN(c3ncc(C(F)(F)F)cc3Cl)CC2)c1,2.9,-4.8%,0.672,-0.3,3.2,1.4,-2.4
Cn1cccc1C(=O)NCc1ccc(S(N)(=O)=O)cc1,1.8,.,0.663,0.6,-1.0,5.6,-0.8
COc1ccc(-c2noc(CNS(=O)(=O)c3ccccc3)n2)cc1,2.8,.,0.696,-0.1,6.0,5.2,-3.2
COc1ccc(OC)c(NC(=O)NCCc2cccc(Cl)c2)c1,3.0,?,0.677,0.0,-0.1,-1.3,-2.2
CCCCOc1cccc(-c2nnc(NC(=O)CSc3ccc(C)cc3)s2)c1,2.8,.,0.667,-0.1,-1.9,.,5.4
CC(=O)N1C(=O)C2(Nc3ccccc3N2)c2ccccc21,3.9,-0.2%,0.721,0.2,-1.3,-1.2,-4.0
CCOC(=O)/C(=N/Nc1ccccc1)N1CCCc2ccccc21,.,.,.,0.9,0.5,0.8,27.8
COc1cccc(/C=C2/Sc3ccc(C(=O)NCCN4CCCCCC4)cc3NC2=O)c1,0.5,.,0.613,-1.2,6.2,1.7,24.6
O=C(O)c1n[nH]c2c1CC(C1CCCCC1)CC2 (stereo not drawn),2.4,.,0.687,-0.3,1.3,7.5,-4.0
O=C(CSc1nnc(-c2ccc(Br)cc2)o1)Nc1cccc2ccccc12,3.4,4.3%,0.667,0.5,-4.9,-0.4,-2.5
COc1ccc(C(C)=O)cc1COc1nc(C)nc2ccccc12,3.4,-4.0%,0.722,0.2,0.4,-2.7,3.1
C/C(=N\NC(=O)OC(C)(C)C)c1cccc([N+](=O)[O-])c1,.,0.2%,.,2.1,2.8,1.8,-1.1
S=C(NCCc1c[nH]c2ccccc12)NC1CC1,0.5,-6.8%,0.625,0.0,-4.4,-0.6,1.2
CC(CO)NCC12CC3CC(CC(C3)C1)C2 (stereo not drawn),2.0,-8.8%,0.671,-0.4,2.4,1.1,-6.2
COc1cc(NC(=O)c2cc3c(=O)n(C)c4ccccc4c3n2C)cc(OC)c1OC,-74.8,-18.1%,0.768,-0.6,3.8,0.0,2.5
O=C(Nc1nnc(S(=O)(=O)N2CCCCC2)s1)c1cccc(Br)c1,0.6,.,.,-3.2,-6.1,-6.4,15.2

Sorted by heavy-atom count (high to low): 3 of the compounds above.
molecule,UCH37 DUB inh,Vif TR-FRET,Ecoli growth,Bfl-1 A1 inh,HNF4A DNA FP,LANA-H2B inh,B2AR ag
COc1cc(NC(=O)c2cc3c(=O)n(C)c4ccccc4c3n2C)cc(OC)c1OC,-74.8,-18.1%,0.768,-0.6,3.8,0.0,2.5
COc1ccc(C(C)=O)cc1COc1nc(C)nc2ccccc12,3.4,-4.0%,0.722,0.2,0.4,-2.7,3.1
CC(CO)NCC12CC3CC(CC(C3)C1)C2 (stereo not drawn),2.0,-8.8%,0.671,-0.4,2.4,1.1,-6.2

Later entries.
molecule,UCH37 DUB inh,Vif TR-FRET,Ecoli growth,Bfl-1 A1 inh,HNF4A DNA FP,LANA-H2B inh,B2AR ag
CCS(=O)(=O)N1CCC(C(=O)NCCC2=CCCCC2)CC1,14.8,?,0.694,0.5,0.7,-3.1,2.5
CCOc1ccc2nc(CN3CCN(Cc4ccsc4)C(CCO)C3)ccc2c1 (stereo not drawn),-2.3,.,0.668,0.8,-4.3,4.9,5.2
Cc1cccc(OCCn2ccnc2)c1C,5.5,.,0.667,0.6,4.1,-2.1,8.7
COC(=O)c1cnc(Oc2ccc(NC(=O)NC(=O)c3ccccc3Cl)cc2)cc1C(F)(F)F,0.6,22.9%,0.662,0.7,0.8,2.4,1.8
Cc1cccc(NC(=S)NC(=O)CCc2ccccc2)c1C,1.3,19.4%,0.719,0.2,-1.1,-3.7,3.1
CCN(CC(=O)Nc1ccc(NC(C)=O)cc1)C(=O)c1c(C)nn(Cc2ccc(C)cc2)c1Cl,0.0,.,0.625,.,-1.5,.,-10.4
COc1ccc(Br)cc1/C=N/NC(=O)c1cccnc1,.,4.0%,.,1.2,0.5,-0.1,-16.5
Cc1c(C(=O)Nc2ccc(Cl)cn2)oc2ccccc12,-1.2,22.2%,0.732,-0.6,1.0,-1.3,-5.0
Cc1ccc(S(=O)(=O)N2CCN(C(=O)CSc3ccccn3)CC2)c(C)c1,-3.7,-3.0%,0.634,-0.4,0.6,-3.9,0.5
COc1ccc(C(C(=O)NC2CCCC2)N(C(=O)c2csnn2)C2CC2)cc1 (stereo not drawn),5.1,.,0.653,0.1,1.9,0.8,2.5
Cc1ccc(C(OCC(O)CN2CCCCC2)c2ccccc2)cc1 (stereo not drawn),3.7,.,0.694,0.1,1.5,3.1,1.2
OCC[C@@H]1C[C@H](O)[C@@H](O)[C@@]2(Cc3ccccc3O2)O1,1.3,.,.,1.5,4.8,-0.3,5.8
CN(CCC1CCCCO1)C(=O)c1cc(COc2ccc(F)cc2F)on1 (stereo not drawn),1.4,-18.5%,0.654,-0.5,2.9,-3.1,-7.7
COC(=O)CCC(=O)N1CCCC(C(=O)c2cc(F)ccc2F)C1 (stereo not drawn),0.2,.,0.717,0.1,-2.7,-0.1,7.3
CC(=O)c1cc(CC=C(C)C)c(O)c(CC=C(C)C)c1O,2.4,-3.8%,0.712,0.5,-0.6,-4.8,-0.4
CC(C)c1ccc(/C=C/C(=O)NCc2ccc(S(N)(=O)=O)cc2)cc1,0.8,.,0.649,-0.5,1.4,-0.6,1.5
CCOC(=O)c1c(C)oc2ccc(O)c(CN3CCCCC3)c12,0.9,-0.7%,0.675,-0.2,1.4,5.9,0.4
CCC(C)NC(=O)CSc1nc2scc(-c3ccccc3)c2c(=O)[nH]1 (stereo not drawn),2.3,4.2%,0.703,-0.1,1.4,0.0,-6.5
